Screens deposited in PubChem BioAssay by several laboratories.
Rce1 inhib: yeast Rce1p protease inhibitors, primary screen, biochemical, fluorescence, cell-free homogeneous. AID 2563, 2010. calls only. CAAX prenyl protease 2 (Saccharomyces cerevisiae (strain ATCC 204508 / S288c)), Q03530. yeast membranes, quenched prenylated peptide cleavage fluorescence. 0.27% of 290,000 active;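 active means fall in fluorescence gain of 50% or more versus controls, with final raw signal at or below 3038400; inconclusive means same 50% fall but final raw signal above 3038400; inactive means fall in fluorescence gain under 50%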;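 further: plate controls were neutral control wells for no effect and wells lacking membranes for full effect; tested at 10 µM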
Target sequence (Q03530 whole entry, looked up): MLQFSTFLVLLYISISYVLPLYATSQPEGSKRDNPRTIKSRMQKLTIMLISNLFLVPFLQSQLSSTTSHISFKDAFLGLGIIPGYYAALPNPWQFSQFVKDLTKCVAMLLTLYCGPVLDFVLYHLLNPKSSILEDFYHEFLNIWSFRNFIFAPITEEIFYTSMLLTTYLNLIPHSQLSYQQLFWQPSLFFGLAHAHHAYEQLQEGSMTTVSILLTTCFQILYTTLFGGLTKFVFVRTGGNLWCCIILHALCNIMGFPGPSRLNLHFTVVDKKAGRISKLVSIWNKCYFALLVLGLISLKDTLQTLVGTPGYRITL
PABP FP inh: PABP poly(A) RNA binding inhibitors, primary screen, biochemical, fluorescence polarization, uHTS; inhibition, % at 35 µM; 1% of 290,000 active; Polyadenylate-binding protein 1 (Homo sapiens), P11940; AID 2014, 2009;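 active means 50% or more with normal probe brightness, or confirmed in later tests; inconclusive means above 50% with abnormal brightness, or retests that disagree; inactive means below 50% or failed in later tests; about a fifth of its hits are not listed in these tables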;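 further: calls also rest on retests at 20 µM and on dose response follow-up; controls were probe without protein and protein plus probe with vehicle; some compounds called inactive have numbers as strong as hits; many hits fall short of the cut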
Target sequence (P11940 whole entry, looked up): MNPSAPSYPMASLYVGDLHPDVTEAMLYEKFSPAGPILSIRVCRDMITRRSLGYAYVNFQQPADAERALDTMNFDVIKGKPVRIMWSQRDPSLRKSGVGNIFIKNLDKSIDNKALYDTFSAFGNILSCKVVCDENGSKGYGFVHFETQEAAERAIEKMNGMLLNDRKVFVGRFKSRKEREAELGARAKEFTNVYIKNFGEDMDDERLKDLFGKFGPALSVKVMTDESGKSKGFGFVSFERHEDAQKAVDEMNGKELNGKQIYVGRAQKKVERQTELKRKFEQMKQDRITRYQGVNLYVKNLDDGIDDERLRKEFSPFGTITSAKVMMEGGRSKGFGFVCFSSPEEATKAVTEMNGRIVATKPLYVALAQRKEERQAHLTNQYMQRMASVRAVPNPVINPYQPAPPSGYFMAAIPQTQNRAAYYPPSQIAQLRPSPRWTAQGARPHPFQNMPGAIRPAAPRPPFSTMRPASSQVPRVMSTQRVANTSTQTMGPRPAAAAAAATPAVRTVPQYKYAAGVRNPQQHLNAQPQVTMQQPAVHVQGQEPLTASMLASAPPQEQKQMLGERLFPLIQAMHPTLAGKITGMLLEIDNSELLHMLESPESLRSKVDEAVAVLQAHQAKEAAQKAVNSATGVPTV
MT1-MMP act inh: blockers of MT1-MMP proenzyme processing, primary screen, HT1080 RFP-PRO-GFP cells, GFP/RFP fluorescence. GFP/RFP ratio change, % at 20 µM. 0.061% of 360,000 active. AID 651647, 2012. GFP/RFP ratio fluorescence, overnight; percent of plate control window, DMSO zero;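 active means GFP/RFP ratio change of at least 30% with cell ATP level not reduced by more than half and red fluorescence within 50% of control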; further: strong numbers were not always called active
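Assay system: HT1080 cells carrying an RFP-PRO-GFP reporter | Dosing: Single dose of 20 µM compound, 1% DMSO final | Incubation: Cells overnight before dosing, compound overnight, 37 °C, 5% CO2 | Evaluation: GFP/RFP fluorescence ratio | Control set: DMSO and RFP-L50D-GFP cell wells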
CSC inhib: cancer stem cell viability inhibitors, primary screen, luminescence. cancer stem cell-like cells viability. AID 2717, 2010. inhibition, % at 7.5 µM. 1.1% of 300,000 active;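 active means mean at 75% or more and at least half the replicates too; inconclusive means mean and replicates disagree; tested in HMLE shEcad cells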;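 further: 0% = median of negative and 100% = median of positive control wells; the first replicate is given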
eIF4H inh: human eIF4H binding inhibitors, primary screen, translation initiation inhibitor project, biochemical, uHTS, fluorescence polarization. 0.94% of 290,000 active. eIF4H fluorescence polarization binding assay. inhibition, % at 35 µM. Eukaryotic translation initiation factor 4H (Homo sapiens), Q15056. AID 2012, 2009;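 active means 50% or more with normal probe brightness, or confirmed in later tests; inconclusive means above 50% with abnormal brightness, or retests that disagree; inactive means below 50% or failed in later tests; about a fifth of its hits are not listed in these tables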;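 further: calls also rest on retests at 20 µM and on dose response follow-up; 0% = protein and probe with vehicle and 100% = probe without protein; strong numbers were not always called active; many hits fall short of the cut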
UUG fidelity: modulators of yeast start codon fidelity, primary screen, whole organism, S. cerevisiae, single point, plate reader. S. cerevisiae UUG-firefly luciferase reporter, luminescence/redox ratio. activity score, % at 18.7 µM. 0.13% of 350,000 active. AID 602363, 2012;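 active means replicate mean at a twofold rise or more, about +100% in these data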;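 further: firefly luciferase made from a UUG start codon reports start codon fidelity; reporter light over untreated wells divided by growth signal over untreated wells; some hits fall short of that in this replicate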
Env fusion inh: inhibitors of HIV-1 Env-driven cell-cell fusion, primary screen, HeLa-JRFL effector, CEM21 target cells, luciferase | inhibition, % at 12.3 µM | 1.1% of 360,000 active | AID 651610, 2012;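 active means mean replicate inhibition score of at least 50 and every replicate individually at or above 50; inconclusive means only one of the two criteria met; inactive means mean below 50 and not all replicates reaching 50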;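 further: 0% = plate neutral controls and 100% = maraviroc near 300 nM; one replicate is shown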
eIF4H inh retest: recorded beside eIF4H inh, whose call it bears; inhibition, %; compound at 20 µM; confirmation average;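 mean of two retest wells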
PABP FP inh retest: further read-out of PABP FP inh, marked with its call; inhibition, %; compound at 20 µM; confirmation repeats;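 mean of two retest wells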
MT1-MMP act inh RFP: further read-out of MT1-MMP act inh, marked with its call; RFP signal change, %; measured here: RFP expression control read;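 0 = vehicle wells; hits needed this value within 50% of zero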
* = called active by the depositor; i = inactive; ? = inconclusive; · = no result given; + = active, no number.

SMILES | Rce1 inhib | PABP FP inh | MT1-MMP act inh | MT1-MMP act inh RFP | CSC inhib | eIF4H inh | UUG fidelity | Env fusion inh | others
Cc1cc(C)cc(N(CCC#N)C(=O)CSC2=Nc3ccccc3C3CC=NN23)c1 (centres undefined) | i | -2 | -8 | -4 | 2 | -2 | · | -3
COc1cc(OC)c(NS(=O)(=O)c2cc(C(=O)NCCCN3CCOCC3)ccc2C)cc1Cl | · | · | -3 | 1 | · | · | -3 | -26
CCOc1ccccc1NC(=O)CSc1nnnn1Cc1ccccc1 | i | -3 | 1 | 4 | 5 | -11 | -2 | 27
COc1c(C)cccc1C(=O)Nc1ccc(N2CCN(S(C)(=O)=O)CC2)cc1 | i | -3 | 3 | 2 | -17 | 11 | -5 | -105
COc1ccc(C(=O)NNC2=NCCCCC2)cc1 | i | -8 | 1 | 3 | -15 | -3 | · | 4
O=C(COC(=O)c1ccc(Br)o1)Nc1ccc(N2CCOCC2)cc1 | · | · | -1 | 7 | · | · | -16 | -2
COc1cccc(/C=N/NC(=O)c2nc(-c3ccccc3)cc(-c3ccccc3)n2)c1O | i | -1 | -5 | -10 | 46 | 9 | -22 | 0
COc1ccc(NC(=O)CN(C)C(=O)c2ccccc2CCc2ccccc2)cc1 | i | · | 1 | -6 | 0 | · | · | ·
COc1ccc(-c2nn(-c3ccccc3)cc2/C=N/O)cc1 | i | 27 | -4 | -6 | 21 | 1 | 15 | -22
Cc1ccc(N(CC(O)CN2CCCC2)S(=O)(=O)c2ccccc2)cc1 (centres undefined) | i | -4 | 4 | -3 | · | -4 | 10 | ·
CSc1cccc(NC(=O)c2cc(S(=O)(=O)N3CCCCC3)c[nH]2)c1 | i | 0 | 0 | 3 | 1 | -4 | -28 | 8
Cc1cc(NC(=O)C(C)SCC(=O)N(C)CC(=O)Nc2ccc(F)cc2)no1 (centres undefined) | · | · | 4 | 4 | -4 | · | -26 | 16
CCC1(c2ccccc2)NC(=O)N(CC(=O)Nc2ccc3c(C)cc(=O)oc3c2)C1=O (centres undefined) | + | · | 5 | -2 | -4 | · | -20 | -2
O=S(=O)(c1ccc(SCc2cccc(Cl)c2)nc1)N1CCCC1 | · | · | 4 | -5 | 18 | · | -11 | ·
COC(=O)C1=C(C)N=C2SC(C#N)=C(N)N2C1c1ccc(OCc2ccccc2)cc1 (centres undefined) | i | -3 | -3 | -5 | 20 | 2 | -10 | ·
CC(Sc1nnc(-c2ccco2)n1N)C(=O)NC1CCCCC1C (centres undefined) | · | · | 6 | 2 | · | · | -9 | 7
Cc1cccc(OCC(=O)NNC(=O)c2cc(S(=O)(=O)N(C)C)ccc2N2CCCC2)c1 | · | · | 1 | 2 | -12 | · | · | 2
O=C(NC(Cc1ccccc1)C(=O)N1CCCC(C(F)(F)F)C1)c1ccccc1 (centres undefined) | i | · | -1 | 3 | -11 | · | 1 | -7
CC(NC(=O)c1cc(S(=O)(=O)N2CCOCC2)ccc1N1CCCC1)c1ccc(Cl)c(Cl)c1 (centres undefined) | i | · | -4 | -4 | -10 | · | · | 9
O=[N+]([O-])c1ccc(C2(O)CN(c3ccccc3)C3=[N+]2CCS3)cc1 (centres undefined) | i | -4 | -2 | -4 | 5 | -5 | -4 | 15
O=C(CN1CCCc2ccccc21)NC(=O)NCc1ccco1 | i | 24 | -7 | -3 | -10 | 27 | -1 | -21
Cc1ccc(-c2nn3c(C)nnc3c3ccccc23)cc1S(=O)(=O)N1CCN(CCO)CC1 | i | -3 | 13 | 9 | -4 | -3 | -13 | -120
Cc1cc(NC(=O)Nc2ccc(Cl)cc2)no1 | i | 3 | -1 | -4 | 19 | -10 | -18 | -18
CCSc1nnc(NC(=O)CSc2nc(CC)nc3c2c(=O)n(C)c(=O)n3C)s1 | i | 4 | 0 | -1 | -2 | -6 | -16 | 13
Cc1ccc(SCc2ccc(C(=O)N3CCCC3)cc2)cc1 | i | 1 | 1 | -3 | 13 | 2 | · | -3

No new results follow: entries from further up.
SMILES | Rce1 inhib | PABP FP inh | MT1-MMP act inh | MT1-MMP act inh RFP | CSC inhib | eIF4H inh | UUG fidelity | Env fusion inh | others
COc1cccc(/C=N/NC(=O)c2nc(-c3ccccc3)cc(-c3ccccc3)n2)c1O | i | -1 | -5 | -10 | 46 | 9 | -22 | 0
COc1ccc(NC(=O)CN(C)C(=O)c2ccccc2CCc2ccccc2)cc1 | i | · | 1 | -6 | 0 | · | · | ·
COc1ccc(-c2nn(-c3ccccc3)cc2/C=N/O)cc1 | i | 27 | -4 | -6 | 21 | 1 | 15 | -22

Further compounds:
SMILES | Rce1 inhib | PABP FP inh | MT1-MMP act inh | MT1-MMP act inh RFP | CSC inhib | eIF4H inh | UUG fidelity | Env fusion inh | others
COc1ccc(CCN(C(=O)C(F)(F)F)C(C(=O)NC2CCCC2)c2cccs2)cc1 (centres undefined) | i | -9 | -23 | -19 | 4 | -7 | · | ·
CC1=C(C(=O)OCC(C)C)C(c2cccs2)NC(=S)N1 (centres undefined) | i | 5 | 4 | -12 | 3 | -12 | -17 | -45
Cc1ccc(CNC(=O)CSc2nc3[nH]ncc3c(=O)[nH]2)cc1 | i | -8 | 2 | 6 | 13 | 2 | -8 | 24
COc1ccc(N(CC(=O)Nc2ccccc2OC)S(=O)(=O)c2ccccc2)cc1Cl | i | 1 | -5 | -9 | 35 | -4 | -12 | 10
COc1ccccc1CN1CCN(Cc2nc(-c3ccc(C)cc3)oc2C)CC1 | i | 8 | -2 | -1 | 8 | -11 | -1 | 18
COC(=O)c1ccc(S(=O)(=O)N2CCN(C)CC2)n1C | i | -4 | 1 | 3 | -6 | 6 | -22 | 9
O=C(Nc1ccc(S(=O)(=O)Nc2nccs2)cc1)c1c(F)c(F)c(F)c(F)c1F | i | -1 | -2 | 0 | 2 | -3 | -8 | -5
Cc1cc2ccc3ccccc3c2cc1CN(C)C | i | 9 | 4 | 5 | 1 | -7 | -1 | -23
Cc1ccc(-c2cc(-c3ccc(Cl)cc3)c(C#N)c(N)n2)o1 | i | 59 | -36 | 3 | 5 | 91 | 8 | 7 | eIF4H inh retest=43;PABP FP inh retest=35
COc1ccc(/C=[N+](\[O-])C2N(c3ccccc3)C(=S)SC2(C)C)cc1OC (centres undefined) | i | -5 | -4 | -3 | -2 | -8 | · | 13
O=C(NNC(=O)c1cccnc1)Nc1ccc(Cl)c(Cl)c1 | i | -9 | -2 | -4 | 14 | -6 | -10 | -97
CCOC(CC(=O)NNC(=O)c1c(-c2c(Cl)cccc2Cl)noc1C)OCC | i | 8 | 2 | 2 | 4 | -10 | -14 | -1
COc1ccc(Cl)cc1NC(=O)CSc1nc2ccsc2c(=O)n1CC1CCC(C(=O)O)CC1 (centres undefined) | i | 28 | 13 | 1 | -1 | 7 | -11 | 9
COc1ccc(N2CCN(c3nccs3)CC2)cc1 | · | 0 | 2 | 1 | -4 | -13 | -19 | -15
Cc1ccc2c(C)c(C(=O)Nc3c(C)n(C)n(-c4ccccc4)c3=O)oc2c1C | i | -5 | -1 | 3 | 11 | -6 | · | ·
O=C(NCc1cccs1)C(Cc1ccccc1)n1cccc1 (centres undefined) | i | -4 | 0 | -1 | 6 | 4 | -2 | 0
COC(=O)Nc1ccc(SCC(=O)c2ccccc2)cc1 | i | 3 | -1 | 2 | -8 | 6 | · | -3
COc1ccc(N2CCN(C(=O)COC(=O)CNC(=O)c3cccc(OC(F)F)c3)CC2)cc1 | · | · | 1 | 1 | · | · | 4 | -93
Clc1ccc2nc(CSc3nc4ccccc4o3)cn2c1 | i | -1 | 0 | -1 | 4 | -3 | -22 | -138
O=C(N/N=C/c1cccc(O)c1)c1csc2ccccc12 | i | -4 | 2 | 1 | -2 | 8 | -24 | ·
CC1=CS(=O)(=O)CC1Sc1nc2ccccc2[nH]1 (centres undefined) | i | -9 | 1 | 2 | -2 | 0 | · | ·
COc1ccc(CCNC(=O)CCCn2c(=O)c3cccn3c3cccnc32)c(OC)c1 | i | · | -4 | -1 | -3 | · | -19 | 16
Cc1nn(-c2ccccc2)c2nc(N)c(C#N)c(-c3ccc(F)cc3)c12 | i | -7 | -5 | -1 | 54 | 13 | -9 | -20
Cc1cc(OCC(=O)N2CCCCCC2)ccc1[N+](=O)[O-] | i | 0 | 15 | 3 | -3 | 2 | -5 | ·
Cc1ccc(NC(=O)c2cc(-c3ccccc3O)n[nH]2)cc1C | i | 2 | 7 | 2 | 11 | -6 | -17 | -21
SMILES | Rce1 inhib | PABP FP inh | MT1-MMP act inh | MT1-MMP act inh RFP | CSC inhib | eIF4H inh | UUG fidelity | Env fusion inh | others
CCOC(=O)C1CCN(CCC(=O)Nc2cccc(Cl)c2C)CC1 | i | -2 | -2 | 1 | -11 | -12 | -22 | ·
CCOc1cc(CNCCO)cc(Br)c1OCc1ccccc1 | i | 30 | · | · | 19 | 2 | 88 | 1
CC[C@@H]1CC=C[C@H]2[C@H]1C(=O)N(Cc1ccccc1)[C@H]2c1cc(C)ccc1F | i | 14 | · | · | · | -1 | · | ·
COc1ccc(C(CNC(=O)c2cccc(S(=O)(=O)Nc3ccc(C)cc3)c2)N2CCCCC2)cc1 (centres undefined) | i | · | -4 | 1 | 12 | · | · | 6
CCOc1ccccc1NC(=O)Cc1c(F)cccc1Cl | i | -19 | 3 | 6 | -4 | 0 | -15 | ·
COCC(=O)N1CCCC(C(=O)c2ccc(C(F)(F)F)cc2)C1 (centres undefined) | i | 4 | -2 | 1 | -4 | 0 | -15 | -1
Cn1c(C(=O)O)cc2cc(F)ccc21 | i | 17 | 6 | 1 | 8 | 6 | -18 | -33
COc1ccc(C(=O)Nc2cccc(NC(C)=O)c2)cc1OC | i | 20 | 5 | 8 | -8 | 15 | · | -41
CC(=O)OC1COC(N2CCc3cc(Br)c([N+](=O)[O-])cc32)C(OC(C)=O)C1OC(C)=O (centres undefined) | i | 4 | 2 | 9 | -5 | -3 | 7 | -14
O=C(NCCCN1CCC(Cc2ccccc2)CC1)C1CCC(=O)N1C1CCCC1 (centres undefined) | i | 1 | -2 | 1 | -7 | -4 | -31 | -10
CCOC(=O)c1ccc(N2C(=O)CC(N3CCN(Cc4ccccc4)CC3)C2=O)cc1 (centres undefined) | i | 10 | 1 | 0 | 6 | -8 | -18 | ·
CC(O)CSc1nc2c(c(=O)n(C)c(=O)n2C)n1CCCc1ccccc1 (centres undefined) | i | 9 | 4 | 3 | 3 | -8 | -5 | 37
COc1cccc(N/C(SCc2ccccc2Cl)=C(/C#N)C(=O)NCc2cccs2)c1 | i | -2 | -8 | -10 | -29 | -8 | · | ·
Oc1ccc(Cl)cc1Cc1cc(Cl)ccc1O | i | -4 | 26 | -34 | 114* | -3 | -14 | 23
CCC(C)[C@H](NC(=O)NCc1ccccc1Cl)C(=O)O (some centres undefined) | i | 1 | 0 | 6 | 12 | -14 | -16 | -3
O=C(O)COc1ccc(/C=C/c2nc3ccc([N+](=O)[O-])cc3s2)cc1 | i | ? | -22 | -3 | -13 | 63 | -5 | 4 | eIF4H inh retest=-1
O=C(CCC(=O)OCCCC(F)(F)C(F)(F)F)Nc1ccccc1 | i | -12 | -3 | 2 | -8 | -2 | -2 | ·
